Compound activity deposited in PubChem BioAssay by Broad Institute.
YB-1 expression – YB-1 expression inhibition | U2OS, qRT-PCR YB-1 vs CDIP delta delta Cp, 16 h; hits give high values; zero = DMSO, each unit about twofold | 30,000 compounds, 0.37% hits | AID 434959 | delta delta Cp (YB-1 minus CDIP) (test concentration not listed);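 active means delta delta Cp rounded down to an integer at or above 3, about 3 SD of DMSO wells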;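 further: higher means less YB-1 transcript or more CDIP transcript relative to DMSO; stock transfer was 100 nL into about 100 µL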
MITF inh – MITF inhibition; AID 2240; 37,000 compounds, 0.28% hits; inhibition, % (test concentration not listed); TRPM1 promoter luciferase, luminescence, 24 h;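 active means most replicates at 85% or more, or half of them and the mean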;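 further: human melanocyte line stably carrying TRPM1 promoter luciferase reporter; 0% = vehicle wells and 100% = a positive control; the first replicate is given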
The depositor's hits bear a star.

For CCC(Sc1nnc2c(n1)[nH]c1ccccc12)C(=O)N1c2ccccc2Sc2ccccc21 (stereo not drawn) the results were MITF inh 3.
Screening O=C(CN(C1CCCCC1)S(=O)(=O)c1ccc(Br)cc1)Nc1c(F)cccc1F returned MITF inh 25.
Cc1sc2ncnc(SCC(=O)c3ccc(Cl)cc3)c2c1C was read as MITF inh -24.
For CCC(Sc1nnc(-c2ccccc2)n1-c1ccccc1)C(=O)Nc1ccc(Cl)cc1 (stereo not drawn) the results were MITF inh 5.
`Cc1ccc(NS(=O)(=O)c2cc(C(=O)Nc3ccccc3C(=O)N3CCCC3)ccc2C)c(C)c1` gave MITF inh -2.
`CN(c1cccc(NC(=O)Cc2ccccc2[N+](=O)[O-])c1)S(C)(=O)=O` gave MITF inh -17.
Screening COc1ccc(Cl)cc1NC(=O)CSc1n[nH]c(-c2ccccc2)n1 returned MITF inh 39.
COC(=O)c1ccccc1NC(=O)CN(C)S(=O)(=O)c1ccc2ccccc2c1 was read as MITF inh 3.
`COc1ccccc1CN1CC(C(=O)O)CC1=O` (stereo not drawn) gave MITF inh -18.
CC1(C)Cc2c(sc3nc(SCC(=O)c4ccc(Cl)cc4)nc(N)c23)CS1 was read as MITF inh -17.
O=C(CCc1nc2ccccc2[nH]c1=O)OCc1c(F)cccc1Cl was read as MITF inh -12.
`COc1ccc(NC(=O)Cn2cnc3sc4c(c3c2=O)CCC(C)C4)c([N+](=O)[O-])c1` (stereo not drawn) gave MITF inh 18.
CCc1ccccc1NC(=O)CSc1nnc(-c2cc3ccccc3cc2O)n1C was read as MITF inh 14.
Screening Cc1sc2ncnc(SCC(=O)Nc3cc(C(F)(F)F)ccc3Cl)c2c1C returned MITF inh 0.
COC(=O)c1ccccc1NC(=O)CN(c1ccc2c(c1)OCCO2)S(C)(=O)=O was read as MITF inh 8.
For COc1ccccc1NC(=O)CCC(=O)O the results were MITF inh 2.
For Cc1cc(=O)[nH]c(SCC(=O)c2cc(C(C)(C)C)c(O)c(C(C)(C)C)c2)n1 the results were MITF inh 29.
For Cc1cc(-c2ccccc2)nc(SCC(=O)Nc2cccc(C(F)(F)F)c2)n1 the results were MITF inh 8.
Screening COc1cc(C(=O)Nc2cccc(-c3nc4ncccc4o3)c2)cc(OC)c1OC returned MITF inh -41.
`COc1ccc(CCNc2nc(N3CCOCC3)nc(N3CCOCC3)n2)cc1OC` gave MITF inh -20.
Screening Cc1c(Cl)cccc1NC(=O)CN(c1ccc(F)cc1)S(C)(=O)=O returned MITF inh 5.
For COc1ccc(OC)c(S(=O)(=O)N(C)CC(=O)O)c1 the results were MITF inh 3.
Screening COc1ccc(NC(=O)Cc2nc(-c3cc4ccccc4oc3=O)cs2)cc1 returned MITF inh -3.
`O=C(COc1ccccc1[N+](=O)[O-])Nc1ccc2oc(-c3ccc(Br)cc3)nc2c1` gave MITF inh -77.
For O=C(Nc1ccc(F)cc1)c1ccccc1S(=O)(=O)c1ccccc1[N+](=O)[O-] the results were MITF inh -18.
`O=C(COc1ccccc1Cl)NCc1ccco1` gave MITF inh -64.
For O=C(CSc1nc(O)cc(=O)[nH]1)Nc1ccccc1 the results were MITF inh 5.
For Cc1cc(CNC(=O)c2cc(-c3ccccc3)nc3ccccc23)nn1C the results were MITF inh -23.
`Cc1cccc(NC(=O)C(Cc2ccc([N+](=O)[O-])cc2)N2C(=O)c3ccccc3C2=O)c1` (stereo not drawn) gave MITF inh 7.
c1coc(CNc2nc3ccccc3n2CCN2CCCCC2)c1 was read as MITF inh -29.

Not a retest: entries from further up.
For CCC(Sc1nnc2c(n1)[nH]c1ccccc12)C(=O)N1c2ccccc2Sc2ccccc21 (stereo not drawn) the results were MITF inh 3.
Screening O=C(CN(C1CCCCC1)S(=O)(=O)c1ccc(Br)cc1)Nc1c(F)cccc1F returned MITF inh 25.
Cc1sc2ncnc(SCC(=O)c3ccc(Cl)cc3)c2c1C was read as MITF inh -24.
For CCC(Sc1nnc(-c2ccccc2)n1-c1ccccc1)C(=O)Nc1ccc(Cl)cc1 (stereo not drawn) the results were MITF inh 5.
`Cc1ccc(NS(=O)(=O)c2cc(C(=O)Nc3ccccc3C(=O)N3CCCC3)ccc2C)c(C)c1` gave MITF inh -2.
`CN(c1cccc(NC(=O)Cc2ccccc2[N+](=O)[O-])c1)S(C)(=O)=O` gave MITF inh -17.
Screening COc1ccc(Cl)cc1NC(=O)CSc1n[nH]c(-c2ccccc2)n1 returned MITF inh 39.
COC(=O)c1ccccc1NC(=O)CN(C)S(=O)(=O)c1ccc2ccccc2c1 was read as MITF inh 3.
`COc1ccccc1CN1CC(C(=O)O)CC1=O` (stereo not drawn) gave MITF inh -18.
CC1(C)Cc2c(sc3nc(SCC(=O)c4ccc(Cl)cc4)nc(N)c23)CS1 was read as MITF inh -17.
O=C(CCc1nc2ccccc2[nH]c1=O)OCc1c(F)cccc1Cl was read as MITF inh -12.
`COc1ccc(NC(=O)Cn2cnc3sc4c(c3c2=O)CCC(C)C4)c([N+](=O)[O-])c1` (stereo not drawn) gave MITF inh 18.
CCc1ccccc1NC(=O)CSc1nnc(-c2cc3ccccc3cc2O)n1C was read as MITF inh 14.
Screening Cc1sc2ncnc(SCC(=O)Nc3cc(C(F)(F)F)ccc3Cl)c2c1C returned MITF inh 0.
COC(=O)c1ccccc1NC(=O)CN(c1ccc2c(c1)OCCO2)S(C)(=O)=O was read as MITF inh 8.
For COc1ccccc1NC(=O)CCC(=O)O the results were MITF inh 2.

(continued)
For COc1cc2c(cc1NC(=O)C(C)Oc1ccc(Cl)cc1Cl)oc1ccccc12 (stereo not drawn) the results were MITF inh -35.
`CCOC(=O)c1ccc(COc2ccc(-c3cnc4ccccc4n3)cc2)o1` gave MITF inh -95.
For COc1ccc(OC)c(S(=O)(=O)N(C)CC(=O)Nc2cccc(Cl)c2C)c1 the results were MITF inh -18.
Screening COc1ccc(Nc2nc(NC(C)(C)C)nc(OC)n2)c(OC)c1 returned MITF inh 14.
For OCc1nc2ccccc2n1CCCOc1ccc(Br)cc1 the results were MITF inh -24.
For O=C(COc1ccc(Cl)cc1Cl)Nc1ncccn1 the results were MITF inh -58.
For COc1ccc(N2C(=O)N(c3ccc(F)cc3)C(=O)C2CC(=O)Nc2ccc(F)cc2)cc1 (stereo not drawn) the results were MITF inh -25.
O=C(O)c1ccc(OCC(O)Cn2cnc3ccccc32)cc1 (stereo not drawn) was read as MITF inh -6.
For CCOC(=O)Nc1ccc2c(c1)N(C(=O)CCN(C)C)c1ccccc1CC2 the results were MITF inh 1.
Screening Cc1cc(=O)[nH]c(SCC(=O)N2CCN(c3ccccc3)CC2)n1 returned MITF inh -7.
Screening Cc1cc(C)c2c(=O)[nH]c(SCC(=O)c3ccccc3)nc2n1 returned MITF inh -6.
Screening NC(=O)CSc1nc2ccccc2[nH]1 returned MITF inh 1.
Screening CCc1cc2c(=O)c(-c3nc(C)cs3)c(CCC(=O)O)oc2cc1O returned MITF inh 28.
Screening C=CCN1C(=O)C(O)(CC(=O)c2ccc(C)o2)c2ccccc21 (stereo not drawn) returned MITF inh 3.
`CC(=O)NCCc1nc2ccccc2n1Cc1ccccc1` gave MITF inh -2.
`COc1ccc(OC)c(NC(=O)CSc2nc(C)cc(=O)[nH]2)c1` gave MITF inh 5.
CCC(=O)Nc1cccc(NC(=O)COc2c(C)cc(C)cc2Br)c1 was read as MITF inh 28.
COc1cc(OC)cc(C(=O)Nc2ccc(S(=O)(=O)Nc3nc(C)cc(C)n3)cc2)c1 was read as MITF inh 16.
`CC(C)(C)C(=O)c1cn(CC(=O)Nc2ccccc2)c2ccccc12` gave MITF inh 25.
Screening COc1ccc(-c2nc(SCC(=O)N3c4ccccc4Sc4ccccc43)n[nH]2)cc1 returned MITF inh 18.
For COc1cc(NC(=O)COc2ccc(Br)cc2)ccc1NC(=O)c1ccccc1Cl the results were MITF inh 3.
For Cc1cc(NC(=O)C(=O)NCCCN2CCOCC2)ccc1Br the results were MITF inh -13.
For O=C(CSc1ccccn1)Nc1cccc2ccccc12 the results were MITF inh -12.
Screening Nc1nc(SCc2ccc3c(c2)OCCO3)n[nH]1 returned MITF inh -19.
`COc1cc(NC(=O)COc2c(Cl)c(C)c(Cl)c(C)c2Cl)c(OC)cc1Cl` gave MITF inh -2.
For COC(=O)c1ccccc1NC(=O)CN1C(=O)c2ccccc2S1(=O)=O the results were MITF inh -1.
For O=C(O)c1cccc(NS(=O)(=O)c2cccc3cccnc23)c1 the results were MITF inh -12.
For O=C(CSc1nc(O)cc(=O)[nH]1)N(c1ccccc1)c1ccccc1 the results were MITF inh -10.
For CCC(SC1=NCCS1)C(=O)Nc1ccc(-c2nc3ccc(C)cc3s2)cc1 (stereo not drawn) the results were MITF inh -52.
COc1ccc(OC)c(S(=O)(=O)Nc2ccc(O)c(Sc3nc4ccccc4s3)c2)c1 was read as MITF inh 60.
Screening CC(C)(C)OC(=O)N1CCC[C@H]1/C=N/NC(=O)c1ccc(C(=O)NO)cc1 returned YB-1 expression 0.47.
Screening O=C(NCc1ccc(F)cc1)[C@H]1C[C@H]2C(=O)N[C@@H](Cc3ccccc3)C(=O)N2[C@H]1c1ccc(O)cc1 returned YB-1 expression 0.0011.
`COC(=O)[C@]1(CCC(=O)OC(C)(C)C)N=C(c2ccc(OCCCO)cc2)O[C@@H]1c1ccccc1N=[N+]=[N-]` gave YB-1 expression 0.5.
For COC(=O)CCCCCCC(=O)N/N=C/c1cc(Cl)cc(Cl)c1O the results were YB-1 expression 0.17.
C[C@@H]1CN([C@H](C)CO)C(=O)CCCn2cc(nn2)CO[C@@H]1CN(C)CC1CCCC1 was read as YB-1 expression 0.066.
`C[C@@H]1CN([C@H](C)CO)C(=O)CCCn2cc(nn2)CO[C@H]1CN(C)S(=O)(=O)c1ccccc1C#N` gave YB-1 expression 0.34.
Cc1ccccc1/C=N/NC(=O)CCCCCCC(=O)Nc1ccccc1O was read as YB-1 expression -0.37.
Cc1ccccc1/C=N/NC(=O)c1ccccc1O was read as YB-1 expression -0.0078.
For C[C@H]1CN([C@@H](C)CO)C(=O)CCCn2nncc2CO[C@H]1CN(C)Cc1cccc2c1OCCCO2 the results were YB-1 expression -0.41.
C[C@H](CO)N1C[C@H](C)[C@H](CN(C)S(=O)(=O)c2ccc(F)cc2)Oc2ncc(C#CC(C)(C)O)cc2C1=O was read as YB-1 expression 0.027.
For CNC[C@@H]1Oc2ncc(-c3cc4ccccc4o3)cc2C(=O)N([C@H](C)CO)C[C@@H]1C the results were YB-1 expression -0.46.
C[C@@H]1CN([C@H](C)CO)C(=O)CCCn2cc(nn2)CO[C@H]1CN(C)S(C)(=O)=O was read as YB-1 expression -0.31.
For CN(C)CCCN1C(=O)[C@@]2(Cc3ccccc31)c1ccccc1C(=O)N(Cc1ccccc1Cl)[C@H]2c1ccc(CO)cc1 the results were YB-1 expression -0.35.
COc1ccccc1S(=O)(=O)N(C)C[C@H]1OCc2cn(nn2)CCCC(=O)N([C@@H](C)CO)C[C@H]1C was read as YB-1 expression 0.15.
For O=C(C1=C[C@H](c2ccc3c(c2)Cc2ccccc2-3)C[C@H](OCc2ccc(CO)cc2)O1)N1CCCCC1 the results were YB-1 expression 0.63.
`C[C@H](CO)N1C[C@H](C)[C@H](CN(C)C(=O)Nc2ccc3c(c2)OCO3)Oc2ncc(C#Cc3cccc(F)c3)cc2C1=O` gave YB-1 expression -0.18.
For O=C(N/N=C/c1cccc(Oc2ccccc2)c1)c1ccccn1 the results were YB-1 expression -0.33.
C=CCOC(=O)[C@H]1[C@@H]2C(=O)O[C@@H](c3ccccc3)[C@@H](c3ccccc3)N2[C@@H](c2ccc(OCCOC(=O)[C@@H]3C[C@@H]4C(=O)N[C@@H](CC(C)C)C(=O)N4[C@@H]3c3ccc(O)cc3)cc2)[C@]12C(=O)Nc1ccc(I)cc12 was read as YB-1 expression -0.18.
C[C@H](CO)N1C[C@H](C)[C@H](CN(C)Cc2ccc3c(c2)OCO3)OCc2cn(nn2)CCCC1=O was read as YB-1 expression -6.4.
For C[C@@H]1CN([C@H](C)CO)C(=O)CCCn2nncc2CO[C@H]1CN(C)C(=O)Nc1ccccc1F the results were YB-1 expression -0.14.
O=C(NO)c1ccc(C(=O)N/N=C/c2ccc[nH]2)cc1 was read as YB-1 expression 0.53.
For C[C@H]1CN([C@@H](C)CO)C(=O)CCCn2nncc2CO[C@H]1CN(C)S(=O)(=O)c1ccc(-n2cccn2)cc1 the results were YB-1 expression -0.0071.
Screening C[C@H]1CN([C@@H](C)CO)C(=O)CCCn2nncc2CO[C@@H]1CN(C)Cc1ccc2c(c1)OCO2 returned YB-1 expression -0.087.
For COC(=O)CCCCCCC(=O)N/N=C/c1ccc(Oc2ccccc2)cc1 the results were YB-1 expression 0.064.
`C[C@H](CO)N1C[C@H](C)[C@H](CN(C)Cc2ccc(C(=O)Nc3ccccc3N)cc2)Oc2ccc(NC(=O)CCC(F)(F)F)cc2C1=O` gave YB-1 expression 0.078.
Screening COCCOC(=O)N1C(=O)[C@@]2(c3cc(C#Cc4ccc(OC)cc4)ccc31)[C@H](C(=O)N1CCN(c3ncccn3)CC1)[C@H]1C(=O)O[C@H](c3ccccc3)[C@H](c3ccccc3)N1[C@@H]2c1ccc(OCCO)cc1 returned YB-1 expression 0.072.
For C[C@@H]1CN([C@H](C)CO)C(=O)CCCn2cc(nn2)CO[C@@H]1CN(C)S(=O)(=O)c1ccc(-n2cccn2)cc1 the results were YB-1 expression 0.22.
Screening CCCN(C)C[C@H]1OCc2cnnn2CCCC(=O)N([C@@H](C)CO)C[C@H]1C returned YB-1 expression -0.3.
Screening C[C@H](CO)N1C[C@H](C)[C@H](CN(C)Cc2ccc(F)cc2)Oc2ncc(-c3cccc(F)c3)cc2C1=O returned YB-1 expression -0.25.

Some of the compounds tested; rates above refer to the full screens.
